# Assay outcomes as filed in PubChem.
# ALR inh: inhibitors of human ALR sulfhydryl oxidase, primary screen, biochemical, H2O2 detection, HRP-luminol luminescence, single point; FAD-linked sulfhydryl oxidase ALR (Homo sapiens), P55789; purified ALR, DTT oxidation; inhibition, % (test concentration not listed); 290,000 compounds, 3.8% hits; AID 485317, 2010;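 active = mean and each replicate at 75% or more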;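 also: stock transfer was 7.5 nL into about 7.5 µL; 0% = neutral wells and 100% = wells with inactivated enzyme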
# Target sequence (P55789 whole entry, looked up): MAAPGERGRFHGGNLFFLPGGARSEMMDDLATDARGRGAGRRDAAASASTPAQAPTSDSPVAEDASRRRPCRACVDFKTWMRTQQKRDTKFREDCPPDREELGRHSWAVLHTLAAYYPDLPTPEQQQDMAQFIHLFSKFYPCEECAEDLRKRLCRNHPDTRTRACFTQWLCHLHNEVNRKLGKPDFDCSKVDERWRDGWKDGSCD
# HNF4A DNA FP: change in binding of human HNF4A to DNA, primary screen, biochemical, fluorescence polarization, FITC-DNA; Hepatocyte nuclear factor 4-alpha (Homo sapiens), P41235; 1 h; activity change, % at 10 µM; 360,000 compounds, 0.3% hits; AID 1224865, 2016; in the data active = activity change above about 30%, passing the limit was not always enough;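 also: controls were the assay level and a saturating level of protein; the project sought stronger binding though the title names inhibitors; some compounds called inactive have numbers as strong as hits; positive values seem to mean higher polarization but the record does not say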
# Target sequence (P41235 whole entry, looked up): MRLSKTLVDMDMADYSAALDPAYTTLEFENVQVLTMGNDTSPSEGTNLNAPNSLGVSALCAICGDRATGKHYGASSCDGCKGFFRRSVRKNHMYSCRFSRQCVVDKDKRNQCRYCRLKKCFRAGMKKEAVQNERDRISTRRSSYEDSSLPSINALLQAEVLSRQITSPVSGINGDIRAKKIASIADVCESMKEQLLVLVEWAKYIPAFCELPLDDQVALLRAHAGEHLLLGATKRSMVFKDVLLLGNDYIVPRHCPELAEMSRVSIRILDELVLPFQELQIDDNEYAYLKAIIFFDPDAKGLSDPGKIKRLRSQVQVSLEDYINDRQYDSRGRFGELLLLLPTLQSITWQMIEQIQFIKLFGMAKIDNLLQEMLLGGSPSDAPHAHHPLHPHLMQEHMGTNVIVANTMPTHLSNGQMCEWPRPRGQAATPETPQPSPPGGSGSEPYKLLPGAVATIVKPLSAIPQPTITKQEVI
# FGF22 binding: binders of human FGF22 protein, primary screen, FGF22 synaptogenesis inhibitor project, biophysical, thermal shift, single point. 340,000 compounds, 1.5% hits. recombinant FGF22 thermal shift, SYPRO orange fluorescence; percent of sucrose octasulfate shift, DMSO zero. AID 651658, 2012. calls only at 9.99 µM;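 active = melting point raised past a set limit in the mean and every replicate; three in four hits are not shown here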
# Target sequence (Q9HCT0 whole entry, looked up): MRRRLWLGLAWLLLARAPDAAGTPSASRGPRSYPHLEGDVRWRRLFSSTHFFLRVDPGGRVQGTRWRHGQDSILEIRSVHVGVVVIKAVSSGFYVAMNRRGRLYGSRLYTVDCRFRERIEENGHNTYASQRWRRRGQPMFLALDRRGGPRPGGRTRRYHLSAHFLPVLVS
# UCH37 DUB inh: inhibitors of human UCH37 deubiquitinase, primary screen, biochemical, Ub-AMC cleavage, fluorescence; Ubiquitin carboxyl-terminal hydrolase isozyme L5 (Homo sapiens), Q9Y5K5; purified proteasome/UCH37; inhibition, % (no concentration beside the values); 330,000 compounds, 0.33% hits; AID 588478, 2011;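 active = mean of two replicates above 20%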;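 also: 0% = compound-free wells with enzyme and 100% = wells lacking proteasome; stock transfer was 100 nL into about 20 µL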
#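 Material: human UCH37 enzyme supplied as purified proteasome complex / Amount: 0.15 nM proteasome as dispensed / Buffer or medium: pH 7.4 Tris-HCl (50 mM) with ovalbumin, ATP-MgCl2, DTT / Times: preincubation 30 min, reaction 25 min, room temperature / Technique: AMC fluorescence from Ub-AMC cleavage, excitation 355 nm, emission 460 nm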
# B2AR ag: beta2AR agonists driving receptor internalization, primary screen, cell-based, FAP fluorogen, flow cytometry. Beta-2 adrenergic receptor (Homo sapiens), P07550. Am2.2-beta2AR cells; reference of the scale not given here. response, % (test concentration not listed). 340,000 compounds, 0.43% hits. AID 504454, 2011;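 active = response above a set limit, near 3 SD of response in nonfluorescent compounds, cut at about 42% in these data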;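 also: stock transfer was 100 nL into about 11 µL; a reference agonist was the positive control; negative values mostly stem from fluorescent compounds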
# LANA-H2B inh: blockers of LANA interaction with H2A/H2B – biochemical, FP readout, HTS, primary screen | Protein LANA1 (Human herpesvirus 8 type P (isolate GK18)), Q9QR71 | cell-free LANA-H2A/H2B peptide, fluorescence polarization | inhibition, % (test concentration not listed) | 320,000 compounds, 0.6% hits | AID 2629, 2010; in the data active = inhibition mostly above about 10%, no sharp cut-off; inactive = mostly below about 6.7%;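 also: stock transfer was 7.5 nL into about 10 µL; 0% = median of vehicle wells and 100% = median of positive control wells; one replicate is shown; the record names a cut of 25% in any replicate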
# E coli growth: E. coli growth inhibition, primary screen, OD600. 330,000 compounds, 0.21% hits. OD600 absorbance (no concentration beside the values). Escherichia coli growth, 23 h; stronger effect = lower value;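 active = OD600 absorbance below the run mean of sample wells minus 3.6 SD, in any replicate, cut at about 0.56 in these data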;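 also: stock transfer was 300 nL into about 60 µL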
# Starred values were filed as active, the others as inactive; i = inactive; x = no result given. The list is partial, so the mix of outcomes need not match the whole.
SMILES,ALR inh,HNF4A DNA FP,FGF22 binding,UCH37 DUB inh,B2AR ag,LANA-H2B inh,E coli growth
COc1ccc(Br)c(C(=O)N2CCN(S(=O)(=O)c3cccs3)CC2)c1,-15,-1.3,i,2.7,9,-21,0.66
Fc1ccc(NC(=S)Nc2cccnc2)c(Cl)c1,x,-0.4,i,0.7,-1,1.4,0.69
CN(C)c1nc(NCc2ccccc2)nc(SCC(=O)Nc2ccccc2)n1,-25,-1.3,i,-0.7,-16,-2.9,0.71
CCCn1nnc(NC(=O)c2ccc(-c3cc(Cl)ccc3Cl)o2)n1,-14,-4.0,i,3.3,4,-3.1,0.69
CCOc1cc2c(C#N)c(N3CCOCC3)nc(N)c2c(N)n1,43,0.0,x,-81,-4,0.2,0.7
C#CCOCCOCCOCCNc1nc(N2CCN(C(=O)[C@H]([C@@H](C)CC)n3cc([C@@H](N)CO)nn3)CC2)nc(N2CCN(C(=O)[C@H](Cc3cc4ccccc4[nH]3)n3cc([C@@H](N)C(C)CC)nn3)CC2)n1 (some centres undefined),-19,x,x,3.8,x,0.7,x
COC(=O)c1c(C)oc2ccc(NS(=O)(=O)c3cc(OC)ccc3OC)cc12,5,4.2,x,2.9,6,-4.4,0.72
COc1cc(/C=C/C(=O)O)cc(S(=O)(=O)Nc2cccc(SC)c2)c1OC,-7,5.7,i,0.0,-3,10,0.66
Cc1n[nH]c(=O)c2c(NC(=O)CSc3cc(Cl)ccc3Cl)oc(C)c12,x,2.1,i,0.0,-4,3.3,0.66
O=C(NCCCn1ccnc1)c1ccc(C(F)(F)F)cc1,9,-3.7,i,-0.1,1,-2.8,0.66
CN1CCc2c(sc3nc(SCC(=O)NCc4ccco4)n(-c4ccccc4)c(=O)c23)C1,34,32,i,-50,7,1.1,0.7
NC(=O)c1nc(C(=O)N2CCN(c3ccccc3)CC2)c2ccccc2n1,x,-0.4,i,-0.2,3,0.7,0.7
CCc1cc(C(=O)Nc2ccc(OC)nc2)sc1C,x,-23,i,x,4,x,x
COc1ccc(NC(=O)Nc2nc3ccccc3s2)cc1,x,-3.0,i,5.8,4,-4.1,0.68
CC(=O)c1cccc(NC(=O)C2CCCN(S(=O)(=O)c3ccc(F)cc3)C2)c1 (centres undefined),x,-2.6,x,1.2,-10,-3.9,0.73
COc1cccc(CNC(=O)c2ccccc2-c2ccccc2C(=O)O)c1,44,-1.2,i,0.3,-4,2.1,0.64
CCC(=O)N1c2ccccc2-c2nnc(SC)nc2OC1c1ccc(N(C)C)cc1 (centres undefined),3,3.2,i,6.6,0,-2.9,0.71
COc1ccc(C(=O)NCc2nnc(SCC(=O)NCc3ccco3)o2)cc1OC,-6,0.1,i,1.7,-2,5.0,0.72
COc1ccc(CN(Cc2cc3cc4c(cc3[nH]c2=O)OCO4)C(=O)NC2CCCCC2)cc1,-2,-0.3,x,-70,-3,5.0,0.65
CC(C)[C@H](NC(=O)c1ccco1)C(=O)N(C)Cc1c(F)cccc1Cl,1,0.0,i,0.3,7,-0.4,0.64
COc1ccc(CN(CC2CCCO2)C(=O)c2cc3ccccc3oc2=O)cc1 (centres undefined),-18,-2.4,i,0.9,-9,0.0,0.64
N/C(=N\O)c1ccccc1-n1cccc1,x,-2.2,x,x,8,x,x
CCC1(c2ccc(F)cc2)NC(=O)N(CC(=O)NCc2ccc(C)cc2)C1=O (centres undefined),-9,-1.4,i,3.7,0,0.1,0.69
Cc1nc2ccc([N+](=O)[O-])cc2c(=O)n1Cc1ccc(F)cc1,-13,0.5,i,2.7,2,-0.9,0.64
COc1cc2cc(Oc3ccc4ccc(=O)oc4c3)c(=O)oc2cc1OC(=O)C=C(C)C,3,x,x,-6.3,x,-1.3,0.71
Cc1ccc(O)c(C(=O)c2cnc(/N=C(\N)N(C)C)nc2)c1,0,0.1,i,x,-2,1.0,x
Cc1cc(F)ccc1S(=O)(=O)N1CCCOC1CNC(=O)C(=O)NCCc1c[nH]c2ccccc12 (centres undefined),-4,6.5,x,2.1,6,-3.0,0.66
Cc1ccc(C(=O)NNCC(=O)Nc2ccc(Cl)cc2F)cc1,-2,2.8,i,1.1,-2,4.9,0.6
CCN(CC)S(=O)(=O)c1cccc(-c2nnc(SCC(=O)NC3CCCCCCC3)n2N)c1,-1,-0.5,x,0.2,-18,7.0,0.74
CC(C)(C)OC(=O)N/N=C\c1ccc(OC(=O)c2cccs2)cc1,4,-3.4,x,x,7,-1.0,x
O=C(CCCN1C(=O)/C(=C\c2ccccc2)SC1=S)Nc1ccccc1O,2,1.0,i,1.8,5,1.1,0.72
COC(=O)c1ccc(N=NN2CCCCCC2)cc1,-3,4.9,i,4.8,1,-5.2,0.68
O=S(=O)(NCc1ccccc1)c1cnc[nH]1,-1,-0.8,x,3.2,-4,-6.2,0.73
CC(=O)N1c2c(cc(Br)cc2S(=O)(=O)N2CCN(C(=O)c3ccco3)CC2)CC1C (centres undefined),0,-3.9,x,0.6,-10,-1.3,0.69
O=C(Nc1nccs1)c1nc(-c2ccccc2)n(-c2ccccc2)n1,x,1.5,x,-7.1,-12,1.4,0.72
Clc1ccc(Sc2oc(/C=N/n3cnnc3)cc2Br)cc1,-12,7.8,x,x,-11,0.7,x
O=C(N/N=C/c1cc(Br)ccc1O)c1ccncc1,x,8.3,i,x,5,0.3,x
C=CCn1c(SCc2c(Cl)cccc2Cl)nnc1-c1cccnc1,-1,-1.4,x,3.3,-10,4.0,0.69
O=C(CCNS(=O)(=O)c1ccc2nsnc2c1)N1CCN(c2ccncc2)CC1,3,0.0,x,4.9,6,-11,0.65
COc1cccc(NC(=O)NC2(C(F)(F)F)Oc3ccccc3O2)c1,4,-1.9,x,4.1,2,-5.1,0.68
NC(=O)COC(=O)[C@H](Cc1c[nH]c2ccccc12)NC(=O)c1ccc(F)cc1,-2,2.0,i,4.4,-2,-1.5,0.65
Cc1cc(NC(=O)CSc2nc3ccsc3c(=O)n2NC(=O)c2ccccc2)no1,x,0.8,x,3.0,1,-3.4,0.77
Cn1c(=O)n(Cc2ccccc2F)c2ccccc21,-2,-3.5,x,5.6,-12,-1.7,0.65
Cc1ccccc1N=C1Nc2ccccc2CS1,-9,0.5,x,0.1,5,-3.2,0.72
CCn1c(CSc2nc(C)cs2)nc2cc(S(=O)(=O)N(C)C)ccc21,-2,0.1,x,-2.6,6,3.1,0.63

# Five compounds drawn at random from the list so far, as already listed:
SMILES,ALR inh,HNF4A DNA FP,FGF22 binding,UCH37 DUB inh,B2AR ag,LANA-H2B inh,E coli growth
O=C(Nc1nccs1)c1nc(-c2ccccc2)n(-c2ccccc2)n1,x,1.5,x,-7.1,-12,1.4,0.72
Cn1c(=O)n(Cc2ccccc2F)c2ccccc21,-2,-3.5,x,5.6,-12,-1.7,0.65
Clc1ccc(Sc2oc(/C=N/n3cnnc3)cc2Br)cc1,-12,7.8,x,x,-11,0.7,x
COc1cccc(NC(=O)NC2(C(F)(F)F)Oc3ccccc3O2)c1,4,-1.9,x,4.1,2,-5.1,0.68
Cc1cc(NC(=O)CSc2nc3ccsc3c(=O)n2NC(=O)c2ccccc2)no1,x,0.8,x,3.0,1,-3.4,0.77

# Sorted by molar mass (rising): some entries from above.
SMILES,ALR inh,HNF4A DNA FP,FGF22 binding,UCH37 DUB inh,B2AR ag,LANA-H2B inh,E coli growth
Cc1ccccc1N=C1Nc2ccccc2CS1,-9,0.5,x,0.1,5,-3.2,0.72
O=C(Nc1nccs1)c1nc(-c2ccccc2)n(-c2ccccc2)n1,x,1.5,x,-7.1,-12,1.4,0.72
Clc1ccc(Sc2oc(/C=N/n3cnnc3)cc2Br)cc1,-12,7.8,x,x,-11,0.7,x

# More results
SMILES,ALR inh,HNF4A DNA FP,FGF22 binding,UCH37 DUB inh,B2AR ag,LANA-H2B inh,E coli growth
CN(CC(=O)Nc1ccc(Cl)cc1)C(=O)C1CCCC1,x,-3.1,i,1.6,1,x,0.57
O=C(CC1C(=O)N(c2ccccc2)C(=S)N1c1ccccc1)c1ccc(Br)cc1 (centres undefined),0,0.3,x,1.1,-19,0.5,0.71
CC(C)c1nc(SCC(=O)Nc2nc3c(s2)CCCC3)c2ccccc2n1,98*,-3.6,x,7.7,-6,-1.0,0.68
Cc1oc(-c2ccc3c(c2)OCCO3)cc1C(=O)NC(CCC(=O)O)C(=O)O (centres undefined),21,2.9,x,1.5,-10,3.5,0.77
COc1ccc(CN(C)C[C@H]2Oc3c(NC(=O)Nc4ccccc4)cccc3C(=O)N([C@H](C)CO)C[C@@H]2C)cc1,-3,-1.5,i,-4.4,5,0.1,x
COc1ccc(CN(C)C2CCCCC2)c(C)c1C,-4,4.5,x,3.3,2,-1.2,0.7
NNC(=O)c1ccc(N2CCCCCC2)c([N+](=O)[O-])c1,-7,0.5,i,6.8,-2,2.1,0.7
COc1ccc2sc(-c3ccc(N(C)C)cc3)c(C#CCCO)c2c1,14,-0.8,i,-478,37,-1.3,0.69
C[N+]1(CC(=O)Nc2ccc(F)cc2)CCN(C(=O)c2ccco2)CC1,8,2.0,x,3.3,4,-1.0,0.71
CC(Cc1ccccc1)C(=O)Nc1ccccc1 (centres undefined),-14,0.2,x,0.3,0,5.0,0.71
CCC(C)c1ccc(C(CC)NC(=O)C2CCCO2)cc1 (centres undefined),3,-0.2,i,-0.4,-4,0.4,0.64
CC(C)CC(=O)c1c[nH]c(C(=O)O)c1,-3,0.0,x,-0.2,2,-5.3,0.65
O=C(O)Cc1sc(NCCc2ccccc2)nc1-c1ccc(F)cc1,22,5.6,i,-0.3,14,3.7,0.66
CC(C)CCNC(=O)COC(=O)/C=C/c1ccc2ccccc2n1,97*,-1.6,i,-4.4,10,-0.5,0.72
Cc1ccc(C2CC(C(F)F)n3ncc(C(=O)Nc4c(C)nn(Cc5c(F)cccc5Cl)c4C)c3N2)cc1 (centres undefined),x,1.8,x,-1.6,1,0.8,0.73

# Quoted from the listing:
# Under B2AR ag, `COc1ccc2sc(-c3ccc(N(C)C)cc3)c(C#CCCO)c2c1` has the entry 37
# Under B2AR ag, `CC(C)CC(=O)c1c[nH]c(C(=O)O)c1` has the entry 2
# Under B2AR ag, `COc1ccc(CN(C)C[C@H]2Oc3c(NC(=O)Nc4ccccc4)cccc3C(=O)N([C@H](C)CO)C[C@@H]2C)cc1` has the entry 5

# Continuation:
SMILES,ALR inh,HNF4A DNA FP,FGF22 binding,UCH37 DUB inh,B2AR ag,LANA-H2B inh,E coli growth
CC(C)(C)n1ncc2c(=O)n(CC(=O)OCc3ccccc3)cnc21,-3,2.2,x,-1.2,4,7.0,0.77
Cc1nc(Nc2ccccc2C(F)(F)F)sc1C(=O)N(C)C,23,1.7,i,1.3,0,4.1,0.7
c1ccc(-c2nnc(-c3ccco3)n2-c2ccccc2)cc1,x,-1.0,x,0.8,-14,-1.4,0.69
COc1ccc2c(c1)N(C)/C(=C/c1cccc[n+]1C)S2,97*,-0.6,i,10.0,-171,-99,0.61
O=C(CCN1CCCCCC1)Nc1ccccc1F,-35,-6.2,x,-1.4,4,-1.4,0.71
N#CCCN(C(=S)NC(=O)c1ccco1)c1ccccc1F,-16,0.5,i,0.1,-1,3.4,0.65
